Sfp inh: inhibitors of Bacillus subtilis Sfp phosphopantetheinyl transferase; Q9F4F7; Biochemical Sfp PPTase activity, qHTS; Potency, µM, without a hit: max response, negative = inhibition, usual class: inhibitors; 310,000 tested, 3.5% active; AID 1490; active = well fitted inhibition curve with a large enough effect; inconclusive = small, poorly fitted or top-dose-only effect, or another doubt; inactive = no such curve, though single readings can be large or run the other way;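 note: the enzyme is Sfp with the accession as filed and its product quenches rhodamine fluorescence; potency is the fitted concentration of half-maximal effect; 0% = enzyme reaction without inhibitor and -100% = no enzyme wells; top concentration of the series not given in the record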
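Fluorescence-quenching assay: 15 nM Sfp-PPTase preincubated 15 min at room temperature with compound, then 5 uM rhodamine-CoA and 12.5 uM BHQ-2-labelled YbbR peptide added. Fluorescence (ex 525/em 598 nm) read at start and after 30 min; difference gives rate.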
D2 PAM: human D2 receptor positive allosteric modulation; P14416; AID 624464; 360,000 tested, 0.23% active; potentiation, % (concentration not given with the values); DiscoveRx D2 beta-arrestin cells, luminescence, 90 min; 100% = 57 uM dopamine signal; active = potentiation of 50% or more; inconclusive = 30% to 50%; inactive = 30% or less;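 note: compound concentration not given in the record; tested on top of an EC20 dose of dopamine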
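D2 cells co-treated with compound plus 50 nM dopamine (EC20) for 90 min at 37 deg C to detect potentiation. Beta-arrestin recruitment was read as enzyme-fragment luminescence after 1 h at ambient temperature. Full response was set by 57 uM dopamine.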
TRPV1 potentiator: enhances activation of the human vanilloid receptor TRPV1; Q8NER1; TRPV1-expressing cells, Fluo-8 calcium influx, capsaicin EC20 potentiation; host cell line not named in the record; control for the full effect not named in the record; potentiation, % at 8.33 µM; 320,000 tested, 0.02% active; AID 540277; active means potentiation above 80%; inconclusive means 30% to 80%; inactive means below 30%; note: 0% is about no effect
Target sequence (Q8NER1 whole entry, looked up): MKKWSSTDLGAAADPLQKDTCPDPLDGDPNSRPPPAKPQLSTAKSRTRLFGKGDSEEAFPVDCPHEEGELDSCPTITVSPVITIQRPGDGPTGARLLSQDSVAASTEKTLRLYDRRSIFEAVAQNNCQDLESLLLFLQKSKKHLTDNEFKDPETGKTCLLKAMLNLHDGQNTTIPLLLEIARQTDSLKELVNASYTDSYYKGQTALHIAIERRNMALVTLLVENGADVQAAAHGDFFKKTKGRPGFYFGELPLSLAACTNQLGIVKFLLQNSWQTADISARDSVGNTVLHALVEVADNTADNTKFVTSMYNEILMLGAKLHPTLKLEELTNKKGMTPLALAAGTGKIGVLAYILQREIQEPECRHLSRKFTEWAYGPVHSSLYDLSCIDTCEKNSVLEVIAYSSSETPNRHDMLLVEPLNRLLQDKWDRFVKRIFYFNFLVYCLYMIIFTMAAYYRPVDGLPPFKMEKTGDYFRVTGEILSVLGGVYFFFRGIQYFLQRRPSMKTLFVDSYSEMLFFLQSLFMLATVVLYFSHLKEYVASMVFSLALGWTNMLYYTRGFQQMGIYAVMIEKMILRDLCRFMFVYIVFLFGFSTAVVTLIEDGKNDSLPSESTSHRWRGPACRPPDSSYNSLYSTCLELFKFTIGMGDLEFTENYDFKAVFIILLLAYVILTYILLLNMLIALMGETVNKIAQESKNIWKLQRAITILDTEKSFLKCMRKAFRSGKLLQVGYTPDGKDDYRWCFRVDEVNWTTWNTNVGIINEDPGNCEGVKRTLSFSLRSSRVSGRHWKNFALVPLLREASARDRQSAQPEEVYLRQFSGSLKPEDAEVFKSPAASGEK
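TRPV1-expressing cells were cultured overnight at 35.5C and loaded with Fluo-8 calcium dye for 40 to 90 min at room temperature. After a 10 s baseline, compound was added and calcium influx was read kinetically for 3 min (ex 480/em 520 nm).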
D2 agonist: agonists of human D2 dopamine receptor (beta-arrestin). P14416. DiscoveRx PathHunter D2 beta-arrestin, luminescence, 90 min; 100% = 57 uM dopamine signal. activation, % (test concentration not listed). 360,000 tested, 0.084% active. AID 624465; in the data active = activation above about 40%; inconclusive = about 15% to 40%; inactive = below about 15%; note: compound concentration not given in the record; the text of the record calls up to 30% inactive
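DiscoveRx PathHunter D2 beta-arrestin cells (2,100/well) attached overnight, then compound-stimulated 90 min at 37 C in HBSS/10 mM HEPES/0.1% Tween-20 buffer; beta-galactosidase complementation read by luminescence after 1 h at ambient temperature. Dopamine 57 uM final (EC100) as control.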
Six1-Eya2 blk: inhibitors of human Six1/Eya2 interaction; Q15475+O00167; AlphaScreen GST-Six1/His-Eya2 binding, biochemical; stronger effect = lower value; control for the full effect not named in the record; activity change, % (no concentration beside the values); 360,000 tested, 0.56% active; AID 651725; in the data active = activity change below about -65%; inconclusive = about -30% to -65%; inactive = above about -30%; note: % is set by controls: 0 for no effect and ±100 for the full control effect; compound concentration not given in the record
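Homogeneous AlphaScreen proximity assay pairing GST-Six1 with His-tagged Eya2 (added as 5X mix: 250 nM and 500 nM) in 50 mM Tris pH 8.0, 300 mM NaCl, 1 mM TCEP. Glutathione donor and nickel acceptor beads; 1 h, 37 °C, dark.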
PINK1 modulator: PINK1 expression modulation; PINK1 immunofluorescence, high-content cytometry, 24 h; Potency, µM (titrated, usually from 76.6 µM), without a hit: top-dose activation (PINK1 increase), most hits filed as activators; 410,000 tested, 0.2% active; AID 624263; active = well fitted activation curve with a large enough effect; inconclusive = small, poorly fitted or top-dose-only effect; inactive = flat fitted curve, though single readings scatter; cell line not stated here;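 note: potency is the fitted concentration of half-maximal effect; % of control where 0% means no effect; nearly all actives have a fitted effect of over 65% in size; a mitochondrial uncoupler was the plate control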
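Cells are seeded, rested 12 hours, then given compound at five concentrations or DMSO for 24 hours. After fixation, blocking and antibody staining, PINK1 amount and mitochondrial localization are scored; CCCP serves as control.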
CtBP-E1A inh: CtBP/E1A binding inhibition. AlphaScreen GST-E1A/His-CtBP binding, 1536-well; stronger effect = lower value; control for the full effect not named in the record. activity change, % (concentration not given with the values). 340,000 tested, 0.49% active. AID 651724; in the data active means activity change below about -65%; inconclusive means about -30% to -65%; inactive means above about -30%; note: % is set by controls: 0 for no effect and ±100 for the full control effect
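Steps: dispense buffer (Tris pH 8.0, NaCl 300 mM, TCEP 1 mM, BSA, Tween 20); add 5X protein mix (GST-E1A, His-CtBP, 125 nM each); pin 23 nL compound; 2 h at 37 °C, dark; add 5X beads (50 ug/mL); 1 h; read.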
* hit, by the source's call; ? = inconclusive; / = not tested or not shown; [ ] = remark or other dose.

1. O=C(O)CCC(=O)N1N=C(c2cccs2)CC1c1cccc([N+](=O)[O-])c1 (stereo not given)
2. Cc1ccc(-c2cc(C(=O)OCC(=O)Nc3cc(C)on3)c3ccccc3n2)c(C)c1
3. COc1cc(CNCc2ccc(SC)cc2)cc(OC)c1
4. Cc1cc(/C=C2\SC(=S)NC2=O)c(C)n1-c1cccc(O)c1
5. O=C(CCl)Nc1cccc(CP(=O)(c2ccccc2)c2ccccc2)c1
6. CCCCCCn1c(=O)n2n(c1=O)[C@@H]1CN(S(=O)(=O)c3ccc(C)cc3)C[C@]1(O)[C@@H](OC(=O)NCc1ccco1)C2
7. COc1cc2[nH]c(=O)n(CCCCCC(=O)N3CC=C(c4ccccc4)CC3)c(=O)c2cc1OC
8. CCN(CC)CCN(Cc1cc2cc3c(cc2[nH]c1=O)OCO3)C(=S)NCc1ccco1

Screen / compound no.	1	2	3	4	5	6	7	8
Sfp inh	12%	16%	15%	?	18%	/	2%	?
D2 PAM	-8	-16	-31	-10	-5	3	29	-14
TRPV1 potentiator	12	5	7	-3	1	/	9	-6
D2 agonist	-3.0	-3.6	-5.5	-6.9	-3.8	-8.2	10	-3.0
Six1-Eya2 blk	3	1	2	-14	7	-8	?	-12
PINK1 modulator	-0.8%	2.6%	4.4%	4.1%	-0.9%	0.1%	-1.5%	-2.7%
CtBP-E1A inh	8	3	-2	-19	5	1	-93*	-5

9. COc1ccccc1NC(=O)Nc1nc(CC(=O)N2CCN(c3ccccc3)CC2)cs1
10. COc1ccc(-c2cc(C(=O)NC(C(=O)O)C(C)C)c(C)o2)cc1OC (stereo not given)
11. Cc1cnc(NC(=O)c2sc3ccccc3c2Cl)s1
12. C=CCNC(=O)COC(=O)c1c2c(nc3ccccc13)CCC2
13. O=C(Nc1cccc(-c2ccc(N3CCCCC3)nn2)c1)c1ccc(Br)o1
14. CCCCN(C)C(=O)C1CCN(Cc2ccc(OCc3ccccc3)cc2)CC1
15. COc1ccc(-n2cnnc2SCC(=O)NC2CCCc3ccccc32)cc1 (stereo not given)
16. CC1CCN(c2ccc(C(=O)Nc3ccc4c(c3)OCO4)cc2[N+](=O)[O-])CC1

Screen / compound no.	9	10	11	12	13	14	15	16
Sfp inh	/	?	9%	7%	/	-15%	4%	12%
D2 PAM	7	7	0	15	?	-26	-7	-1
TRPV1 potentiator	8	28	-9	-1	12	-5	-10	-12
D2 agonist	-3.1	-2.6	-3.6	5.6	-0.7	-0.7	-1.3	4.6
Six1-Eya2 blk	-18	-3	2	-10	-28	-3	6	?
PINK1 modulator	-0.9%	-2.0%	4.2%	1.9%	2.1%	-2.0%	0.0%	3.5%
CtBP-E1A inh	?	1	-9	-10	-16	6	1	?

17. Cc1ccc(NC(=O)c2ccc(=O)[nH]n2)cc1S(=O)(=O)Nc1ccccc1Cl
18. COc1ccc(N(C)S(=O)(=O)c2cccc(C(=O)NCc3ccc(C)cc3)c2)cc1
19. O=C(O)C1Cc2[nH]cnc2C(c2cccc([N+](=O)[O-])c2)N1 (stereo not given)
20. COc1ccc(Nc2nc(-c3cccs3)nc3ccccc23)c(OC)c1
21. COc1ccc(Nc2cc(C)nc3nc(C)nn23)cc1Cl
22. Cn1c(CC(=O)Nc2ccccc2F)nnc1SCC(=O)NC1CCCCC1
23. c1ccc(SCc2nc(-c3cccnc3)no2)cc1
24. CCc1cccc(CC)c1NC(=O)COC(=O)Cc1ccsc1

Screen / compound no.	17	18	19	20	21	22	23	24
Sfp inh	/	/	-15%	-20%	-18%	3%	-7%	-3%
D2 PAM	-4	-7	-2	-24	1	-5	8	-11
TRPV1 potentiator	-16	4	22	6	0	-10	/	-10
D2 agonist	-1.4	1.5	-3.0	-3.4	-0.9	-0.5	-2.0	2.6
Six1-Eya2 blk	-26	1	-21	24	-18	0	0	0
PINK1 modulator	7.1%	1.2%	0.3%	0.5%	1.5%	1.1%	1.7%	0.7%
CtBP-E1A inh	/	7	/	15	-11	-2	6	-8

25. COc1ccccc1CNC(=O)c1ccc(N(C)S(=O)(=O)c2ccc(C)cc2)cc1
26. CCOC(=O)C1=NN(c2ccccc2)C(=O)/C1=C\c1ccc(N(C)C)cc1
27. c1ccc(Cn2nnnc2CN2CCN(Cc3ccc4c(c3)OCO4)CC2)cc1
28. Cc1ccc2cc(N)ccc2n1
29. COc1ccc(-c2sc3cc(OC)c(OC)cc3c2C#CC2(O)CCCCC2)cc1
30. O=C(COc1ccc2c3c(c(=O)oc2c1)CCC3)NCCN1CCOCC1
31. CCOc1ccc(NC(=O)C2CCCN(C(=O)NCc3ccccc3)C2)cc1 (stereo not given)
32. Cc1ccc([C@H]2C(C#N)=C(N)Oc3cc(C)oc(=O)c32)o1

Screen / compound no.	25	26	27	28	29	30	31	32
Sfp inh	12%	-10%	11%	6%	/	0%	2%	5%
D2 PAM	-8	-11	-36	2	-16	-20	0	-4
TRPV1 potentiator	8	9	-1	6	-1	2	-8	8
D2 agonist	-3.6	-2.9	0.0	4.1	0.1	-1.8	-3.6	-18
Six1-Eya2 blk	17	-5	2	0	-2	3	-1	0
PINK1 modulator	1.7%	3.2%	-3.8%	0.2%	3.7%	-1.0%	-0.4%	5.1%
CtBP-E1A inh	-5	-1	-2	0	-1	-6	-1	0

Reprinted from the entries so far, 8 compounds:
25. COc1ccccc1CNC(=O)c1ccc(N(C)S(=O)(=O)c2ccc(C)cc2)cc1
26. CCOC(=O)C1=NN(c2ccccc2)C(=O)/C1=C\c1ccc(N(C)C)cc1
27. c1ccc(Cn2nnnc2CN2CCN(Cc3ccc4c(c3)OCO4)CC2)cc1
28. Cc1ccc2cc(N)ccc2n1
29. COc1ccc(-c2sc3cc(OC)c(OC)cc3c2C#CC2(O)CCCCC2)cc1
30. O=C(COc1ccc2c3c(c(=O)oc2c1)CCC3)NCCN1CCOCC1
31. CCOc1ccc(NC(=O)C2CCCN(C(=O)NCc3ccccc3)C2)cc1 (stereo not given)
32. Cc1ccc([C@H]2C(C#N)=C(N)Oc3cc(C)oc(=O)c32)o1

Screen / compound no.	25	26	27	28	29	30	31	32
Sfp inh	12%	-10%	11%	6%	/	0%	2%	5%
D2 PAM	-8	-11	-36	2	-16	-20	0	-4
TRPV1 potentiator	8	9	-1	6	-1	2	-8	8
D2 agonist	-3.6	-2.9	0.0	4.1	0.1	-1.8	-3.6	-18
Six1-Eya2 blk	17	-5	2	0	-2	3	-1	0
PINK1 modulator	1.7%	3.2%	-3.8%	0.2%	3.7%	-1.0%	-0.4%	5.1%
CtBP-E1A inh	-5	-1	-2	0	-1	-6	-1	0

Further results follow.
33. C/C(=N\NC(=O)NC1CCCCC1)c1ccco1
34. O=C(Nc1ccccc1C(=O)NCCCn1ccnc1)c1ccc(Cl)cc1Cl
35. O=C(CN1CCCCC1)N1c2ccccc2Sc2ccc(C(F)(F)F)cc21
36. CCOC(=O)C1(C)CCN1C(=O)c1ccc(F)c(Cl)c1 (stereo not given)
37. O=C(CCNC(=O)Cn1ccc2ccccc2c1=O)NCCCN1CCN(c2ccccc2F)CC1
38. CCC(C)NC(=O)c1ccc2c(c1)N(Cc1ccccc1)C(=O)CS2 (stereo not given)
39. CCCCc1c(-c2ccccc2Br)ncn1CCc1ccccc1OC
40. CC1CCCCN1CCNC(=O)c1ccc2c(c1)N(Cc1ccccc1F)C(=O)c1ccccc1S2=O (stereo not given)

Screen / compound no.	33	34	35	36	37	38	39	40
Sfp inh	0%	15%	11%	/	13%	3%	/	5%
D2 PAM	-9	1	-37	-4	-42	-18	/	-45
TRPV1 potentiator	8	-4	-1	/	9	-25	/	9
D2 agonist	-1.4	-0.7	-3.1	2.6	-1.1	-3.6	/	-7.4
Six1-Eya2 blk	-3	7	-2	-3	5	2	-16	-4
PINK1 modulator	2.1%	1.3%	3.2%	0.1%	-1.6%	2.4%	?	1.8%
CtBP-E1A inh	-24	15	1	-3	3	-1	3	-7

41. CC(=O)Nc1cc(-c2nn(CC(=O)N3CCCCC3)c(=O)c3ccccc23)ccc1N1CCOCC1
42. CC(=O)Nc1ccc(NC(=O)C(C)OC(=O)CCN=C2NS(=O)(=O)c3ccccc32)cc1 (stereo not given)
43. Cc1cc(C(=O)NCc2ccc(F)cc2)c2ccccc2n1
44. COc1cccc(C(=O)CN(C(=O)c2ccc(Cl)c(Cl)c2)N2C(=O)c3ccccc3C2=O)c1
45. CC(C)C(c1nnnn1Cc1ccccc1)N1CCc2ccccc2C1 (stereo not given)
46. C(=N\Nc1nc(Nc2ccccc2)nc(Nc2ccccc2)n1)/c1ccncc1
47. COCCCNC(=S)N1CCC(NC(=O)Nc2ccc(C)cc2)CC1
48. O=C(Cc1ccccc1)NCC(=O)N/N=C/c1ccc([N+](=O)[O-])s1

Screen / compound no.	41	42	43	44	45	46	47	48
Sfp inh	25%	8%	3%	16%	3%	13%	3%	10%
D2 PAM	0	-20	-14	-8	-18	-1	-8	12
TRPV1 potentiator	-5	-1	7	19	-12	-3	1	-3
D2 agonist	-2.8	-1.8	-3.9	-2.4	-3.2	6.1	0.8	4.5
Six1-Eya2 blk	-8	2	5	-1	1	8	-2	-4
PINK1 modulator	/	2.3%	2.5%	-0.9%[38.3 µM]	0.0%[38.3 µM]	-1.8%	-0.6%	?
CtBP-E1A inh	-18	3	8	-2	7	2	4	-6

49. CCS(=O)(=O)c1ccc2oc(SCC(=O)Nc3ccc(OC)cc3OC)nc2c1
50. Cc1c(C(=O)OCC(=O)NCc2ccccc2)oc2ccccc12
51. CC1CCC2C(=O)N(c3ccc(Cc4ccncc4)cc3)C(=O)C2C1 (stereo not given)
52. COc1ccccc1CNC(=O)C(NC(=O)c1ccccc1)C(C)C (stereo not given)

Screen / compound no.	49	50	51	52
Sfp inh	16%	/	19%	12%
D2 PAM	-4	-2	-8	-2
TRPV1 potentiator	5	-4	-13	5
D2 agonist	-6.1	-5.6	-0.6	4.1
Six1-Eya2 blk	-2	0	-1	4
PINK1 modulator	1.7%	-0.6%	0.8%	2.4%
CtBP-E1A inh	/	-19	-6	14

Bioassay records as filed in PubChem BioAssay.
